NS1 function inh: inhibitors of influenza NS1 protein function | Potency, µM (titrated, usually from 46.1 µM), inactives show at the top dose activity, positive = more growth | S. cerevisiae slowed by influenza A NS1, growth recovery by OD600 | AID 2326 | 270,000 compounds, 0.4% hits; also: actives are rising curves; nearly all actives have a fitted effect of over 50% in size
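In this qHTS, NS1 from influenza A is expressed in budding yeast, where it slows growth. Cells are switched from glucose to 2% galactose medium (pH 6.0, -URA), treated with compound, and growth recovery is read at OD600.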
LASV entry inh: blocks Lassa virus binding to or entry into cells; Lassa virus pseudotype entry inhibition, cell reporter; control for the full effect not named in the record; Potency, µM (doses to about 37.9 µM), inactives show at the highest dose activity change, negative = inhibition, usual class: inhibitors; 300,000 compounds, 1.2% hits; AID 540256; active means well fitted inhibition curve with a large enough effect; inconclusive means small, poorly fitted or top-dose-only effect, or effect the other way; inactive means flat fitted curve, though single readings scatter; tested in HEK293 cells; also: % is scaled to controls: 0 for no effect and ±100 for the full control effect; nearly all actives have a fitted effect of over 50% in size; luciferase read-out
SARS PLpro yeast: blocks SARS-CoV papain-like protease in a yeast assay. S. cerevisiae expressing SARS-CoV PLpro, growth rescue; control for the full effect not named in the record. Potency, µM (doses to about 32.9 µM), inactives show at the highest dose activity, positive = growth rescue. 330,000 compounds, 0.19% hits. AID 485353; also: 0% is about no effect; nearly all actives have a fitted effect of over 55% in size; growth read by luminescence after 48 h
RE007 growth inh: less growth of the S. pombe RE007 Vpr strain; S. pombe RE007 Vpr strain, BacTiter-Glo ATP luminescence, 24 h; control for the full effect not named in the record; 360,000 compounds, 0.21% hits; Potency, µM (doses to about 92.2 µM), for the others: top-dose activity change, negative = less growth; AID 651644; active = well fitted falling curve with a large enough effect; inconclusive = small, poorly fitted or top-dose-only effect; inactive = no such curve, though single readings can be large or run the other way;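 also: % is scaled to controls: 0 for no effect and ±100 for the full control effect; nearly all actives have a fitted effect of over 50% in size; the assay follows cell death caused by Vpr and the record does not say whether a fall means rescue or toxicity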
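Fission yeast strain RE007, carrying one chromosomally integrated HIV-1 vpr copy, was seeded at OD 0.01 in PMG+AL medium with 23 nL pinned compound. After 24 h at 30 °C and 99% humidity, viability was read by BacTiter-Glo luminescence.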
MARV entry inh: Marburg virus entry inhibition; Potency, µM (series often up to 37.8 µM), inactives show top-dose activity change, negative = inhibition, usual class: inhibitors; 300,000 compounds, 1.8% hits; Marburg virus pseudotyped entry inhibition, cell reporter; control for the full effect not named in the record; about a third of the inactives were read at about 46 µM; AID 540276; active = well fitted inhibition curve with a large enough effect; inconclusive = small, poorly fitted or top-dose-only effect, or effect the other way; inactive = flat fitted curve, though single readings scatter; tested in HEK293 cells; about a fifth of its hits are not listed in these tables; also: % is scaled to controls: 0 for no effect and ±100 for the full control effect; luciferase read-out
Cruzain inh noDet: blocks cruzain activity in detergent-free assay | P25779 | purified cruzain, Z-FR-AMC fluorescence, no detergent | Potency, µM, for inactives: max response, negative = inhibition, hits mostly inhibitors | 200,000 compounds, 2.3% hits; active = well fitted curve in the direction sought with a large enough effect; inconclusive = small, poorly fitted or top-dose-only effect, or another doubt; inactive = no such curve, though single readings can be large; an effect the other way counts as inactive or inconclusive;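 also: plate controls were enzyme without inhibitor for no effect and buffer without enzyme for full effect; nearly all actives have a fitted effect of over 40% in size; top concentration of the series not given in the record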
Target sequence (P25779 123-467 limits assumed): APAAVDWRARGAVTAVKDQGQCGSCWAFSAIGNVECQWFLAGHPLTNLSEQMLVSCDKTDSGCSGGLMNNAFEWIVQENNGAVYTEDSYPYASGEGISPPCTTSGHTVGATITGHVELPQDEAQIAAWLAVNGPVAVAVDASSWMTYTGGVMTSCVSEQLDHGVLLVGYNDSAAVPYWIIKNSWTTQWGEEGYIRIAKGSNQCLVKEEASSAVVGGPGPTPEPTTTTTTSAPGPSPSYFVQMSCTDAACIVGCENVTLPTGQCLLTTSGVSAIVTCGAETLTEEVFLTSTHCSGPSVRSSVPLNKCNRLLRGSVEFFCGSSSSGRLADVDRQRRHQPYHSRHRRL
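Purified cruzain at 1.5 nM, pre-incubated 15 min with compound at room temperature in 100 mM sodium acetate pH 5.5, 5 mM DTT, 0.00005% Triton X-100. Reaction started with 2 uM Z-FR-AMC; AMC fluorescence increase over 60 s gives rate.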
2A StopGo: FMDV 2A StopGo reporter, luciferase signal; Potency, µM (series often up to 57.9 µM), for inactives: at the highest dose signal change, negative = less light; 410,000 compounds, 1.2% hits; human cells with a luciferase reporter of 2A StopGo recoding; control for the full effect not named in the record; AID 1159524; active = well fitted falling curve with a large enough effect; inconclusive = small, poorly fitted or top-dose-only effect; inactive = no such curve, though single readings can be large or run the other way; tested in HEK293T cells; also: % is scaled to controls: 0 for no effect and ±100 for the full control effect; nearly all actives have a fitted effect of over 45% in size; luciferase light after 4 h
Cruzain inh Det: inhibitors of Trypanosoma cruzi cruzain with detergent. P25779. purified cruzain, Z-FR-AMC fluorescence, 0.01% Triton. Potency, µM, inactives show max response, negative = inhibition, most hits filed as inhibitors. 200,000 compounds, 0.43% hits. AID 1478; active = well fitted curve in the direction sought with a large enough effect; inconclusive = small, poorly fitted or top-dose-only effect, or another doubt; inactive = no such curve, though single readings can be large; an effect the other way counts as inactive or inconclusive;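 also: plate controls were neutral wells for no effect and buffer without enzyme for full effect; nearly all actives have a fitted effect of over 40% in size; top concentration of the series not given in the record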
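Enzyme 1.5 nM, Z-FR-AMC 2 uM, NaOAc 100 mM pH 5.5, DTT 5 mM, Triton X-100 0.01%; 15 min RT compound preincubation; kinetic ex360/em450, 60 s delta.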
Starred values were filed as active, the others as inactive; ? = inconclusive; / = not tested or not shown; & = joins results of further samples; [ ] = another dose, or the depositor's remark. Unless noted, calls follow the shape of the dose curve; as a rule, active means well fitted rising curve with a large enough effect; inconclusive means small, poorly fitted or top-dose-only effect; inactive means no such curve, though single readings can be large or run the other way. Potency is read from the fitted curve at half-maximal effect.

SMILES	NS1 function inh	LASV entry inh	SARS PLpro yeast	RE007 growth inh	MARV entry inh	Cruzain inh noDet	2A StopGo	Cruzain inh Det
O=C(Nc1ccc(N2CCOCC2)cc1)c1cccc2c(Br)cccc12	-2%	-18%	1%	1%	20%[46.1 µM]	/	-11%	/
Cc1ccc(NC(=O)Nc2ccc(Cl)cc2)c(Br)c1	16%	14%	-2%	-7%	?	?	-3%	-3.0%
CCCCN(CCCC)CCNC(=O)c1cc(-c2cccnc2)nc2ccc(S(=O)(=O)N3CCC(C)CC3)cc12	/	20%[46.1 µM]	/	/	/	-7%	-6%	-0.7%
O=C(O)c1ccc(NC(=O)c2cn(-c3ccccc3)nc2-c2ccc(F)cc2)cc1	/	18%[46.1 µM]	2%	3%	17%[46.1 µM]	/	-6%	/
CN(C)CCN(Cc1ccccc1)S(=O)(=O)c1ccc(-c2ccc(=O)[nH]n2)s1	5%	22%[46.1 µM]	-2%	-1%	-24%[46.1 µM]	/	19%	/
CC(=O)Nc1ccc(C(=O)CSc2nnc(Cn3nnc4ccccc43)n2C)cc1	-3%	?	4%	-2%	-2%	-13%	-11%	-8.5%
Cc1c(N=Cc2c(O)n(Cc3ccco3)c(=O)c3ccccc23)c(=O)n(-c2ccccc2)n1C	-1%&26%	-1%	-1%&13%	-2%	-44%&-44%	?	/	-6.0%&-2.2%
COc1ccc2[nH]c(=O)c(CN(CC3CCCO3)S(=O)(=O)c3ccccc3F)cc2c1 (stereo not given)	-12%	?	0%	5%	?	/	-17%	/
COc1ccc(NC(=O)Cn2nnc(-c3ccccc3NS(=O)(=O)c3ccccc3)n2)cc1	20%	?	1%	5%	8.9µM*	8%	?	-4.1%
COc1ccc(C(=O)NC(Oc2ccccc2)C(Cl)(Cl)Cl)cc1 (stereo not given)	9%	-13%	-1%	6%	-22%	-5%	8%	-1.5%
CCOC(=O)CC(=O)CSc1nc(-c2cccnc2)ccc1C#N	-24%	14%	-9%	8%	6%	-4%	/	-7.2%
Cc1nn(S(=O)(=O)c2ccc(Br)cc2)c(C)c1S(=O)(=O)N1CCOCC1	5%	-7%[46.1 µM]	-1%	8%	0%[46.1 µM]	/	-14%	/
OCCNCC12CC3CC(CC(C3)C1)C2	3%	/	1%	-20%	-16%[46.1 µM]	/	0%	/
CC(C)c1ccc(O)c(N)c1	24%	-11%	-4%	-8%	25%&25%	-2%	?	10%
O=C(OCc1csc(-c2ccccc2)n1)c1ccccc1O	/	2%	2%	-3%	6%[46.1 µM]	/	56%[activator]	/
Fc1ccccc1COc1ccc2ccccc2c1CNc1nn[nH]n1	/	-9%[46.1 µM]	1%	2%	-29%[46.1 µM]	/	-9%	/
O=C1/C(=C/c2cccc([N+](=O)[O-])c2)CSc2ccc(Cl)cc21	1%	12%	0%	-13%	3%	/	-1%	/
CCNC(=O)c1c2c(nc3ccccc13)C(=O)N(C1CCCCC1)C2	/	20%[46.1 µM]	/	/	/	1%	-14%	-4.1%
COc1ccc2c(c1)nc(SCC(=O)C(C)(C)C)n2C	-8%	-10%	5%	0%	10%	2%	/	2.6%
Cc1cccc(NC(=O)CSc2nc3nc(C)cc(C)c3c(=O)[nH]2)c1	9%	-3%	-1%	1%	0%	4%	/	-3.6%
COc1ccc(CNC(=O)CSc2cccc3cccnc23)cc1	-33%	-18%[46.1 µM]	1%	10%	-12%[46.1 µM]	/	18%	/
Cc1ccc(NC(=O)C(=O)NCC(c2ccc3c(c2)OCO3)N2CCN(C)CC2)c(C)c1 (stereo not given)	/	6%[46.1 µM]	/	/	/	-9%	-6%	-1.9%
O=c1c2ccccc2nc(-c2ccccc2)n1-c1ccccn1	-1%	-3%[46.1 µM]	0%	8%	-2%[46.1 µM]	/	-15%	/
COc1ccc(CCN(C)C(=O)c2ccc(S(=O)(=O)Nc3ccccc3C)cc2)cc1OC	5%	/	-1%	-5%	/	/	?	/
O=C(O)/C(=C\c1ccc(Br)cc1)c1ccc(S(=O)(=O)N2CCCCC2)s1	0%	-16%	23%	23%	2%[46.1 µM]	5%	-12%	-19%
Cc1nn(C)c(C)c1S(=O)(=O)Nc1ccc2c(c1)OCO2	-2%	?	-2%	-7%	0%[46.1 µM]	-24%	90%[activator]	6.3%
COc1ccccc1C1Nc2c(sc3nc(C)cc(C)c23)C(=O)N1c1ccccc1 (stereo not given)	/	?	/	/	9%[46.1 µM]	8%	36%[activator]	-11%
O=C(CCn1cnc2ccccc2c1=O)NCc1ccccc1	/	5%[46.1 µM]	/	/	/	2%	4%	-0.6%
O=C(CN1CCN(C2CCCCC2)CC1)Nc1cccc2ccccc12	/	10%	0%	18%	0%	/	3%	/
COc1ccc(-c2cc(C(=O)NC(Cc3c[nH]c4ccccc34)C(=O)O)c(C)o2)cc1OC (stereo not given)	9%	?	5%	-5%	?	?	40%[activator]	-20%
CSc1nc2nc3c(cc2c(=O)n1-c1ccccc1C)CCCC3	-32%	?	-3%	?	?	/	?	/
COC(=O)Cc1cc(=O)oc2c(C)c(O)ccc12	5%	10%	6%	-16%	15%	5%	-7%	-2.1%
COC(=O)COn1c(SCC(=O)OC)nc2ccccc2c1=O	-83%	-11%	6%	-2%	?	5%	9%	3.2%
O=C(NC1CCCCC1)C1CCC(CNS(=O)(=O)c2cccc3nsnc23)CC1 (stereo not given)	7%	/	2%	4%	/	-10%	-29%	0.1%
Cn1nc(C(=O)OCC(=O)Nc2ccc(F)cc2Cl)c2ccccc2c1=O	/	0%	20%	1%	-1%	/	-9%	/
COc1cc(CNCc2ccccn2)ccc1OCc1c(Cl)cccc1Cl	-46%	?	-1%	-10%	?	4%	0%	-0.7%
CCNc1nc(NCC)n2c(SCC(=O)Nc3c(C)cccc3C)nnc2n1	/	2%	-1%	-15%	27%	/	-8%	/
Cc1cc2c(=O)n(CC(=O)N3CCN(c4ccc(F)cc4)CC3)cnc2s1	3%	-13%	-3%	22%	-17%	?	-10%	2.3%
O=C(N/N=C/c1c(O)n(-c2cccc3ccccc23)c(=O)[nH]c1=O)c1ccncc1	-6%	?	2%	-14%	12%[46.1 µM]	/	-3%	/
COc1ccc(S(=O)(=O)Cc2ccc(C(=O)N3CCN(c4ccccn4)CC3)o2)cc1	-10%	/	4%	-8%	1%	8%	?	7.1%
CCn1c(NC(=O)c2cccc(Cn3cc(Cl)cn3)c2)nc2ccccc21	-36%	/	8%	-3%	/	-11%	?	-8.7%
Cn1c(C(=O)N2CCCC(C(=O)NCCCSC3CCCCC3)C2)cc2sccc21 (stereo not given)	-71%	13µM*	-14%	0%	?	?	?	?
COc1ccc(CNC(=O)c2cc3sccc3n2Cc2ccc(F)cc2)cc1	/	?	/	/	-3%[46.1 µM]	-7%	-7%	-1.2%
CC1=NCCN1S(=O)(=O)c1cc([N+](=O)[O-])ccc1Cl	-1%	2%	1%	-2%	-16%[46.1 µM]	/	-5%	/
Cc1ccccc1OCC(=O)OCC(=O)Nc1cc(S(=O)(=O)N2CCCCC2)ccc1Cl	/	-14%	1%	1%	-3%	/	-9%	/
COCCNC(=O)CCCn1c(SCc2ccccc2Cl)nc2c(sc3ccccc32)c1=O	/	2%[46.1 µM]	/	/	-15%[46.1 µM]	18%	?	3.9%
COc1ccc(N=Nc2c(-c3ccc(OC)cc3)[nH]oc2=O)cc1	12%	?	-5%	-3%	1%	/	0%	/
COc1ccc(C(=O)c2ccc(Br)cc2)c2ccccc12	13%	/	-4%	5%	/	-2%	-3%	0.3%
O=C(CSc1nccn1Cc1ccccc1)Nc1ccccc1	5%	17%	28%	-20%	5%	/	37%[activator]	/
COc1ccc(N(C(=O)c2ccco2)C(C(=O)NC2CCCC2)c2ccc(C)cc2)c(OC)c1 (stereo not given)	11%	?	10%	17%	?	/	-9%	/
CCCCCC1=CCC/C1=N\NC(=O)c1ccc2c(c1)OCO2	/	/	-1%	-18%	6%[46.1 µM]	/	-6%	/
O=C(CSc1nncn1-c1cccnc1)Nc1ccccc1[N+](=O)[O-]	3%	2%	-2%	1%	3%[46.1 µM]	/	-9%	/
Cc1ccc2nc(-c3ccc(O)cc3)c(Nc3ccc(Cl)cc3)n2c1	/	?	/	/	?	3%	-9%	-14%
Cc1ccc(CNC(=O)CN2C(=O)COc3ccc(C)cc32)cc1	-1%	?	2%	-3%[3.69 µM]	0%	-4%	7%	4.3%
COc1cc2nc(CN3CCN(S(=O)(=O)c4ccccc4)CC3)[nH]c(=O)c2cc1OC	/	-2%	-1%	3%	0%	/	-10%	/
COc1ccccc1CNCC(O)(c1ccc(Cl)cc1)c1ccc(Cl)cc1	-19%	?	1%	-3%	?	-1%	?	1.5%
CSc1ccccc1C(=O)C1CCCN(Cc2cnn(-c3ccccc3)c2)C1 (stereo not given)	-4%	?	0%	-16%	?	/	-7%	/
CC(C)CC(CO)N1CCN(C(=O)c2ccc(C(C)(C)C)cc2)CCC1=O (stereo not given)	-14%	2%	-1%	12%	?	21%	-16%	2.6%
CCC(C)(C)n1nnnc1C(c1ccccn1)N1CCOCC1 (stereo not given)	1%	-2%	2%	-1%	2%	0%	/	2.4%
O=C(CCC(=O)OCCCC(F)(F)C(F)(F)F)Nc1ccc(Cl)cc1Cl	-8%	4%	-3%	-7%	-2%	-1%	-11%	-6.9%
Next section:
SMILES	NS1 function inh	LASV entry inh	SARS PLpro yeast	RE007 growth inh	MARV entry inh	Cruzain inh noDet	2A StopGo	Cruzain inh Det
COc1cccc(NC(=O)C(=O)NCCc2sc(-c3cccc(C)c3)nc2C)c1	/	0%[46.1 µM]	/	/	/	10%	36%[activator]	-5.0%
COc1ccccc1Nc1nc(-c2cccnc2)cs1	-54%	4%	-13%	-18%	-22%	/	20%	/
Cc1cccc(-c2nc3ccccc3c(=O)[nH]2)c1	3%	/	-1%	-16%	/	/	14%	/
COc1ccc(-c2noc(-c3cc(-c4ccc(F)cc4)n[nH]3)n2)cc1	/	3%[46.1 µM]	/	/	/	12%	0%	1.4%
Brc1csc(/C=N/Nc2nc3ccccc3s2)c1	-8%	?	-33%	-27%	?	?	33%[activator]	-2.7%
